TRPV1 PAM: HTS Assay for Compounds that Act as Potentiators of the Vanilloid Receptor 1. 320,000 compounds, 0.02% hits. TRPV1-expressing cells, Fluo-8 calcium influx, capsaicin EC20 potentiation; host cell line not named in the record; control for the full effect not named in the record. potentiation, % at 8.33 µM; active means potentiation above 80%; inconclusive means 30% to 80%; inactive means below 30%; note: 0% is about no effect
Target sequence (Q8NER1 whole entry, looked up): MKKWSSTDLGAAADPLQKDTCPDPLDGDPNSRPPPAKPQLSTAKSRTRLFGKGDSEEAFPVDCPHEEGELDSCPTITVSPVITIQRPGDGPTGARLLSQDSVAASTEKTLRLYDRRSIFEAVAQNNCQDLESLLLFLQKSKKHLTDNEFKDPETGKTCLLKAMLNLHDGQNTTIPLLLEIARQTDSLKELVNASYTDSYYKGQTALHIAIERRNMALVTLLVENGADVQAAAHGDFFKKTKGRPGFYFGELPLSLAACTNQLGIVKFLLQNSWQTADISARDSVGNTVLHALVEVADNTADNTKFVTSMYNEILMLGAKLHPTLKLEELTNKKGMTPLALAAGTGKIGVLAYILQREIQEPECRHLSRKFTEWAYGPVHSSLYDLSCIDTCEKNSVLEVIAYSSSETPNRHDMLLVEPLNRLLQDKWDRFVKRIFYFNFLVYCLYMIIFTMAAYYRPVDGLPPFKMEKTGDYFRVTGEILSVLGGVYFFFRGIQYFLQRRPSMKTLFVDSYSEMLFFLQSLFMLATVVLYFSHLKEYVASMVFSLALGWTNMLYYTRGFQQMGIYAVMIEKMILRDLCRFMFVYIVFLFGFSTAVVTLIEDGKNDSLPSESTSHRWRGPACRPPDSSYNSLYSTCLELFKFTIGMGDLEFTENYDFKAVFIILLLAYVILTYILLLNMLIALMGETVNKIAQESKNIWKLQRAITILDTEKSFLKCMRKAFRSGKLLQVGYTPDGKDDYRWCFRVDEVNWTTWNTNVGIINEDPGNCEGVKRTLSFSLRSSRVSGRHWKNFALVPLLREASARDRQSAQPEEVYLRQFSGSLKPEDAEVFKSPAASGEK
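Cells expressing TRPV1 were dye-loaded with Fluo-8 and read kinetically: 10 s baseline, 3 min after compound (agonist portion), then 2 min after EC20 capsaicin (allosteric enhancer portion). Calcium-bound dye fluorescence at 480/520 nm.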
CtBP-E1A blk: qHTS Assay for Inhibitors of the CtBP/E1A Interaction; CtBP / adenovirus E1A interaction (AlphaScreen); AlphaScreen GST-E1A/His-CtBP binding, 1536-well; active compounds read low; control for the full effect not named in the record; activity change, % (concentration not given with the values); 340,000 compounds, 0.49% hits; AID 651724, 2012; in the data active means activity change below about -65%; inconclusive means about -30% to -65%; inactive means above about -30%; note: % is set by controls: 0 for no effect and ±100 for the full control effect
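Homogeneous bead-based format: GST-tagged E1A captured on glutathione donor beads, His-tagged CtBP on nickel acceptor beads; compounds precede bead addition by 2 h at 37 °C.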
D2 agonist: Beta-Arrestin HTS for Positive Allosteric Modulators of the Human D2 Dopamine Receptor: Agonists. D(2) dopamine receptor (Homo sapiens), P14416. DiscoveRx PathHunter D2 beta-arrestin, luminescence, 90 min; 100% = 57 uM dopamine signal. activation, % (concentration not given with the values). 360,000 compounds, 0.084% hits. AID 624465, 2012; in the data active = activation above about 40%; inconclusive = about 15% to 40%; inactive = below about 15%; note: the text of the record calls up to 30% inactive
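Agonist mode: compounds alone added to overnight-plated D2 PathHunter cells for 90 min at 37 C, with 57 uM final dopamine (EC100) defining full response. Beta-arrestin recruitment detected by chemiluminescent reagent, read after 1 h at ambient temperature.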
Sfp PPTase inh: qHTS Assay for Inhibitors of Bacillus subtilis Sfp phosphopantetheinyl transferase (PPTase); AID 1490, 2009; Biochemical Sfp PPTase activity, qHTS; Potency, µM, for inactives: max response, negative = inhibition, usual class: inhibitors; 4'-phosphopantetheinyl transferase ffp (Bacillus subtilis), Q9F4F7; 310,000 compounds, 3.5% hits; active = well fitted inhibition curve with a large enough effect; inconclusive = small, poorly fitted or top-dose-only effect, or another doubt; inactive = no such curve, though single readings can be large or run the other way;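 note: the enzyme is Sfp with the accession as filed and its product quenches rhodamine fluorescence; potency is the fitted concentration of half-maximal effect; 0% = enzyme reaction without inhibitor and -100% = no enzyme wells; top concentration of the series not given in the record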
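Fluorescence-quenching assay: 15 nM Sfp-PPTase preincubated 15 min at room temperature with compound, then 5 uM rhodamine-CoA and 12.5 uM BHQ-2-labelled YbbR peptide added. Fluorescence (ex 525/em 598 nm) read at start and after 30 min; difference gives rate.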
Six1-Eya2 blk: qHTS Assay for Inhibitors of the Six1/Eya2 Interaction; Homeobox protein SIX1 (Homo sapiens) + Protein phosphatase EYA2 (Homo sapiens), …; AlphaScreen GST-Six1/His-Eya2 binding, biochemical; active compounds read low; control for the full effect not named in the record; activity change, % (no concentration beside the values); 360,000 compounds, 0.56% hits; AID 651725, 2012; in the data active = activity change below about -65%; inconclusive = about -30% to -65%; inactive = above about -30%; note: % is set by controls: 0 for no effect and ±100 for the full control effect
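Six1/Eya2 binding was read as AlphaScreen signal after compounds were pinned into GST-Six1 plus His-tagged Eya2 (5X stock 250/500 nM) in pH 8.0 Tris/NaCl/TCEP buffer, beads added, then incubated 1 h, 37 C, dark.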
PINK1 modulator: A Quantitative High throughput Screen to Identify Chemical Modulators of PINK1 Expression; PINK1 immunofluorescence, high-content cytometry, 24 h; 410,000 compounds, 0.2% hits; AID 624263, 2012; Potency, µM (top dose mostly 76.6 µM), inactives show at the highest dose activation (PINK1 increase), most hits filed as activators; active = well fitted activation curve with a large enough effect; inconclusive = small, poorly fitted or top-dose-only effect; inactive = flat fitted curve, though single readings scatter; cell line not stated here;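 note: potency is the fitted concentration of half-maximal effect; % of control where 0% means no effect; nearly all actives have a fitted effect of over 65% in size; a mitochondrial uncoupler was the plate control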
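Cells are seeded, rested 12 hours, then given compound at five concentrations or DMSO for 24 hours. After fixation, blocking and antibody staining, PINK1 amount and mitochondrial localization are scored; CCCP serves as control.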
D2 potentiator: Beta-Arrestin HTS for Positive Allosteric Modulators of the Human D2 Dopamine Receptor: Potentiators; D(2) dopamine receptor (Homo sapiens), P14416; DiscoveRx D2 beta-arrestin cells, luminescence, 90 min; 100% = 57 uM dopamine signal; potentiation, % (no concentration beside the values); 360,000 compounds, 0.23% hits; AID 624464, 2012; active = potentiation of 50% or more; inconclusive = 30% to 50%; inactive = 30% or less;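 note: compound concentration not given in the record; tested on top of an EC20 dose of dopamine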
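PathHunter D2 cells, attached overnight at 37 deg C, received compound in DMSO plus dopamine at EC20 (50 nM final) for 90 min at 37 deg C. Beta-arrestin recruitment was read as luminescence after 1 h with detection reagent at ambient temperature.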
* hit, by the source's call; ? = inconclusive; nt = not tested or not shown; [ ] = remark or other dose.

Results follow in this order: PINK1 modulator	TRPV1 PAM	CtBP-E1A blk	Sfp PPTase inh	Six1-Eya2 blk	D2 agonist	D2 potentiator
> C/C(=C\c1ccccc1F)C(=O)c1c(C)cc(C)[nH]c1=O
→ 0.6%	-11	-10	6%	11	-2.3	-5
> O=C1CCCc2c1cc(C(=O)NCCCN1CCOCC1)c(=O)n2-c1ccc(Cl)cc1
→ 3.2%	1	-1	12%	3	-5.5	-3
> Cc1nc(C)c(C(=O)N(c2ccccc2F)C(C(=O)NCC2CCCO2)c2ccccc2)s1 (stereo not given)
→ -0.9%	-11	0	11%	-1	-9.5	-4
> O=S(=O)(c1ccc(NCc2ccc(F)cc2)nc1)N1CCCC1
→ 1.7%	-12	-4	9%	2	-6.6	3
> CCN(CC)CCNC(=O)c1ccc(Cl)c(S(=O)(=O)Nc2ccccc2OC)c1
→ 0.7%	0	-7	12%	-1	-3.1	-16
> CCCOC(=O)CSC1=C(C#N)C(c2ccccc2OCC)C(C#N)C(=O)N1 (stereo not given)
→ 3.5%	3	3	-3%	0	-6.2	-14
> Cc1ccc(C)c(COc2coc(CN3CCN(C(=O)c4ccco4)CC3)cc2=O)c1
→ 2.4%	12	-21	nt	4	11	4
> COc1ccc(S(=O)(=O)N2c3ccccc3OCC2c2ccccc2)cc1 (stereo not given)
→ 2.3%	1	-7	11%	4	-1.2	-6
> CCOC(=O)Cn1cnc2c(nnn2Cc2ccc(Cl)cc2)c1=O
→ 6.9%[38.3 µM]	-3	3	11%	0	-0.8	-11
> CC(C)N1CCC(C)(C(=O)Nc2cc(-c3ccccc3)nn2C)C1 (stereo not given)
→ 3.8%	nt	9	nt	18	11	8

Results follow in this order: PINK1 modulator	TRPV1 PAM	CtBP-E1A blk	Sfp PPTase inh	Six1-Eya2 blk	D2 agonist	D2 potentiator
> CC1(c2ccc3ccccc3c2)NC(=O)N(CC(=O)N2CCN(c3ccccc3O)CC2)C1=O (stereo not given)
→ -0.6%	-11	-28	23%	6	4.1	14
> CCc1cc(=O)oc2cc(OC(C)C(=O)NCC3CCC(C(=O)O)CC3)c(Cl)cc12 (stereo not given)
→ -0.3%	-11	-5	19%	2	-8.8	-46
> CCOC(=O)c1c(C)[nH]c(C(=O)COC(=O)C(C)Oc2ccc(Cl)cc2Cl)c1C (stereo not given)
→ 0.6%	-1	-9	?	9	2.0	-2
> COc1cccc(/C=N/NC(=S)Nc2cccc(C(=O)O)c2)c1O
→ -0.5%	-21	-91*	-1%	-92*	-10	-8
> Nc1ccc(/C=C/C(=O)c2ccco2)cc1
→ 3.4%	-2	6	-16%	5	-0.8	-9
> COc1ccc(C2CC(c3ccccc3)=NN2C(=O)COC(=O)c2ccc(Cl)nc2)cc1 (stereo not given)
→ -0.8%	-25	-4	?	12	2.7	-13
> CCC1(CC)NC(=O)NC1=O
→ -2.2%	-12	11	8%	2	-3.5	-4
> CNC(=O)/C(C#N)=C/c1cn(CC(=O)NCc2ccco2)c2ccccc12
→ 0.7%	7	-4	1%	-5	-5.4	-13
> Cc1cccc(Cn2cnc3c(nnn3Cc3ccc(F)cc3)c2=O)c1
→ 3.7%[38.3 µM]	-1	-11	6%	-5	-0.3	-8
> CN1CCN(C(=O)CC23CC4CC(CC(C4)C2)C3)CC1
→ 2.4%	1	2	9%	5	-2.7	-21

Results follow in this order: PINK1 modulator	TRPV1 PAM	CtBP-E1A blk	Sfp PPTase inh	Six1-Eya2 blk	D2 agonist	D2 potentiator
> COC(=O)c1cc(NC(=O)c2ccc([N+](=O)[O-])cc2)c(=O)oc1C
→ 0.9%	0	4	-15%	17	3.6	-3
> CCOC(=O)c1[nH]c(C)c(C(=O)NC(C)CC)c1C (stereo not given)
→ -0.7%	-2	4	-4%	0	-3.4	-1
> COC(=O)[C@H](C)NC(=O)Nc1ccc(OC)cc1OC
→ -0.5%	20	0	5%	1	-2.8	9
> Cc1ccccc1-c1cc2nc(Oc3ccc4c(c3)OCO4)n(C)c(=O)c2s1
→ 2.7%	nt	1	nt	-7	1.5	3
> NC(=O)CN1C(=O)C(=O)N(Cc2cccc(C(F)(F)F)c2)C1=O
→ -1.0%	4	4	3%	9	2.2	2
> CCC(=O)n1nc(-c2ccco2)nc1SCc1ccccc1
→ 1.6%	-2	5	45µM*	-2	-0.6	-19
> CN(Cc1nc(Cc2cccc(F)c2)no1)CC1COCCO1 (stereo not given)
→ -0.5%	10	9	-12%	-3	-4.9	-5
> Cc1cc2nc(C3CCCCC3)c(Cc3ccsc3)n2c(C)c1Br
→ 11%	nt	-20	nt	4	nt	nt
> Cn1c(C(=O)N2CCN(Cc3ccc4c(c3)OCO4)CC2)cc2c(=O)n(C)c3ccccc3c21
→ 0.4%	-18	?	1%	?	-1.4	-2
> CC(NC(=O)NCCCn1ccnc1)(C(F)(F)F)C(F)(F)F
→ 0.1%	17	2	24%	3	-3.8	-7

Results follow in this order: PINK1 modulator	TRPV1 PAM	CtBP-E1A blk	Sfp PPTase inh	Six1-Eya2 blk	D2 agonist	D2 potentiator
> CC(C)(C)n1nnnc1CN1CCN(C2CCCC2)CC1
→ 1.0%	-8	3	21%	6	3.9	-5
> Cc1ccc(C(=O)Nc2cc(=O)n(C)c(=O)n2C)cc1C
→ 2.7%	nt	1	-2%	1	-0.3	-1
> O=C(N/N=C1\CCc2ccccc21)c1ccc(O)cc1
→ -0.4%	17	-2	-1%	1	-4.1	-2
> CC(C(=O)Nc1ccccc1)c1ccc(-c2ccccc2)c(F)c1 (stereo not given)
→ 23%	14	6	15%	17	0.4	-21
> O=C(Nc1ccnn1C1CCN(Cc2ccccc2F)CC1)C1CCCC1
→ 3.2%	-14	-11	4%	5	-2.0	-12
> Cn1c(Cl)c(/C=N/OC(=O)C(C)(C)C)c2ccccc21
→ 6.5%	4	5	-5%	4	1.9	1
> O=C(c1cccs1)N1CCCC(N2CCN(c3ccc(F)cc3)CC2)C1 (stereo not given)
→ 0.2%	19	1	7%	2	0.6	-14
> CCOc1ccc(NC(=O)Nc2nc3ccc(S(C)(=O)=O)cc3s2)cc1
→ 0.4%	-10	6	-1%	5	1.1	-22
> O=C(NCc1ccccc1)c1ccc(NC(=O)C2CCCC2)cc1
→ 2.4%	nt	-1	nt	0	0.4	nt
> CCc1ccccc1Nc1nc(N)nc(COC(=O)C2CCN(C(=O)c3ccc(F)cc3)CC2)n1
→ -2.2%	-22	4	nt	-1	0.2	-17

Results follow in this order: PINK1 modulator	TRPV1 PAM	CtBP-E1A blk	Sfp PPTase inh	Six1-Eya2 blk	D2 agonist	D2 potentiator
> Cc1ccc(N2C(=O)N(CC(=O)N3CCCc4ccccc43)C(=O)C2C)cc1 (stereo not given)
→ ?	0	5	-16%	3	-1.3	-8
> CC(C)NC(=O)C1CCN(C2CCN(C(=O)C3=CCCC3)CC2)CC1
→ 2.3%	5	nt	11%	-3	-4.7	-1
> COC(=O)Nc1sc2c(c1C(=O)NCc1ccco1)CCCC2
→ ?	6	2	79µM*	-4	5.8	-1
> Cc1ccc(S(=O)(=O)N(C)CC(=O)N2CCN(Cc3ccc4c(c3)OCO4)CC2)cc1
→ -1.7%	-8	-3	-3%	9	-1.2	-7
> Nc1ccc(Cc2ccc([N+](=O)[O-])cc2)cc1
→ -1.7%	nt	-13	nt	-13	-4.1	-1
> O=S(Cc1ccc(Cl)cc1)CC(O)(c1ccccc1)c1ccccc1 (stereo not given)
→ nt	18	-10	14%	7	-0.9	-11
> Cc1ccc(NC(=S)N(C)C)cc1C
→ 1.6%	-5	2	-6%	-9	-6.0	-1
> O=C(CCN1C(=O)c2ccccc2C1=O)Nc1ccc(F)cc1
→ -0.1%[38.3 µM]	3	14	20%	0	-2.0	-2
> O=C(CC(O)(CC(=O)OCc1ccccc1)C(=O)OCc1ccccc1)OCc1ccccc1
→ 8.7%	nt	39	nt	16	-1.5	-6
> CCCOc1cccc(C(=O)Nc2cccc3ncccc23)c1
→ 2.1%	2	-4	11%	6	-3.4	-6

Results follow in this order: PINK1 modulator	TRPV1 PAM	CtBP-E1A blk	Sfp PPTase inh	Six1-Eya2 blk	D2 agonist	D2 potentiator
> O=[N+]([O-])c1ccc(Cl)c(/C=N/NC(=S)Nc2ccccc2)c1
→ 4.3%[38.3 µM]	nt	-8	2%	-1	-2.2	-4
> Cn1c(=O)c(C(=O)NCCc2ccc(Cl)cc2)c(O)c2ccccc21
→ 0.7%	23	12	?	4	0.1	-3
> O=C1CCC2c3[nH]c4ccccc4c3CCN12 (stereo not given)
→ 3.5%	nt	18	nt	-17	3.2	-9
> O=C(Nc1nnc(COc2ccc(Cl)cc2)s1)C1CCCO1 (stereo not given)
→ 1.5%	2	3	13µM*	7	-1.0	-4
> CC(=O)c1cn(-c2ccc(Cl)cc2)c(=O)[nH]c1=O
→ -0.4%	0	7	12%	15	-0.7	5
> COc1ccc(CN2CCC(C(=O)c3ccc(Cl)cc3)CC2)cc1
→ 9.7%	-7	nt	17%	8	-3.5	-81
> CN(C)c1ccnc(NCc2ccccc2)c1C#N
→ 1.1%	-15	1	2%	1	-5.3	-9
> O=C(CN1CCCCCCC1)N/N=C/c1ccc(F)c(F)c1
→ -0.3%	-24	35	-9%	21	-1.3	-10

Single records, from the list above:
`O=C(Nc1nnc(COc2ccc(Cl)cc2)s1)C1CCCO1` (stereo not given) as listed: PINK1 modulator = 1.5%; TRPV1 PAM = 2; CtBP-E1A blk = 3; Sfp PPTase inh = 13µM*; Six1-Eya2 blk = 7; D2 agonist = -1.0; D2 potentiator = -4
`CN(C)c1ccnc(NCc2ccccc2)c1C#N` as listed: PINK1 modulator = 1.1%; TRPV1 PAM = -15; CtBP-E1A blk = 1; Sfp PPTase inh = 2%; Six1-Eya2 blk = 1; D2 agonist = -5.3; D2 potentiator = -9
